HPGD inh = blocks human HPGD enzyme activity. AID 894. purified HPGD, NADH fluorescence kinetic, PGE2 substrate. 150,000 compounds, 4.3% hits. P15428. Potency, µM, for the others: at the top dose activity change, negative = inhibition, most hits filed as inhibitors; active = well fitted inhibition curve with a large enough effect (not every such curve was filed as active); inconclusive = small, poorly fitted or top-dose-only effect, or another doubt; inactive = no such curve, though single readings can be large or run the other way;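 further: top concentration of the series not given in the record; plate controls included wells without enzyme; inactives centre near -10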
Target sequence (P15428 whole entry, looked up): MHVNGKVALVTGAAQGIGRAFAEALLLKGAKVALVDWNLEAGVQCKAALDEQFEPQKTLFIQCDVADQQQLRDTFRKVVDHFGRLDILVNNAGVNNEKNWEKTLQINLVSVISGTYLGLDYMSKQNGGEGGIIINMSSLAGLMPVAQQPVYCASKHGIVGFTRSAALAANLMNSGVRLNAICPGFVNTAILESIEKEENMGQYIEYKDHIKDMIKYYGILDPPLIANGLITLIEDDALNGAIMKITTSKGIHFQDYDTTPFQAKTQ
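20 nM HPGD preincubated 15 min at room temperature with compound in 50 mM Tris-HCl pH 8, 0.01% Tween 20. Started with 1 mM NAD+ and 30 uM prostaglandin E2; NADH fluorescence (360/450 nm) read 5 times over 30-s intervals, last minus first.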
* marks the source's active call; other numbers are inactive results; ? = inconclusive; & = joins results of further samples; [ ] = remark or other dose. On the % scale 0 is the no-effect control and ±100 the full control effect; potency means the concentration at half of the fitted maximal effect. A portion of the library; rates above refer to the full screens.

SMILES,HPGD inh
Cc1ccc(N2C(=O)CC(Sc3nc4ccccc4o3)C2=O)cc1Cl (stereo unspecified),?
CN(C)c1ccc(N=Cc2ccco2)cc1,-29.2%
O=c1[nH]c(C2CCCCC2)nc2ccccc12,-7.6%
O=C(Cc1ccccc1)Nc1cccc(N2CCCC2)c1,?
Cc1ccc2oc(Nc3nc(C)cc(C)n3)nc2c1,-6.7%
Cn1cc(Cl)nc1C(O)c1ccccc1 (stereo unspecified),3.6%
CCC(C(=O)Nc1ccccc1)c1ccccc1 (stereo unspecified),-6.3%
Nc1nc(N)c2[nH]c(CNc3ccc(C(=O)O)cc3)nc2n1,0.3%
Cc1cc(NC(=O)CSc2nc3c(sc4ccccc43)c(=O)n2CCc2ccccc2)n[nH]1,-24.9%
O=C(CSc1ncnc2scc(-c3ccccc3)c12)N1CCN(c2ccccc2F)CC1,-16.4%
Cc1nn(C)c(C)c1CN(C)C(=O)c1cc2n(n1)C(C(F)(F)F)CC(c1cccs1)N2 (stereo unspecified),-9.9%
Cc1ccc(NC(=O)COC(=O)c2ccccc2-c2nc3ccccc3s2)c(C)c1,-8.8%
NNc1nc2c(F)cc(F)cc2s1,-5.2%
Cc1cc(C)cc(C(=N)c2ccccc2Cc2cccc3ccccc23)c1,-10.6%
COc1ccc(S(N)(=O)=O)cc1C(=O)NCCCN1CCN(c2ccc(C)cc2)CC1,-13.9%
CCc1nc2c(nnn2Cc2ccc(F)cc2)c(=O)[nH]1,14.1µM*
Cn1c(=O)c2c(nc(NCCCO)n2CCc2ccccc2)n(C)c1=O,0.3%
Cc1cc(NS(=O)(=O)c2ccc(NC(=O)COc3ccccc3Cl)cc2)no1,-27.8%
CSc1nnc(-c2ccco2)c(-c2ccco2)n1,8.91µM*
CCOC(=O)/C=c1\s/c(=C\c2ccc(C#N)cc2)c(=O)n1CC(=O)NCc1ccco1,38.2%[activator]
CCNc1ccc(C(=O)OCC(=O)NC(C)c2ccccc2)cc1[N+](=O)[O-] (stereo unspecified),-10.1%
Cc1ccccc1N(Cc1nnc2n1CCCCC2)C(=O)Nc1ccccc1,-5.0%
CSc1nnc(-c2ccc(S(=O)(=O)N3CCOCC3)cc2)n1CC1CCCO1 (stereo unspecified),?
COc1ccc2[nH]c3c(=O)n(N)c(C)nc3c2c1,?
CCOC(=O)c1sc(NC(=O)C(C)(C)C)cc1C,-2.7%

An excerpt from above in order of molecular weight, lowest first:
SMILES,HPGD inh
CSc1nnc(-c2ccco2)c(-c2ccco2)n1,8.91µM*
O=C(Cc1ccccc1)Nc1cccc(N2CCCC2)c1,?
Cn1c(=O)c2c(nc(NCCCO)n2CCc2ccccc2)n(C)c1=O,0.3%
COc1ccc(S(N)(=O)=O)cc1C(=O)NCCCN1CCN(c2ccc(C)cc2)CC1,-13.9%
O=C(CSc1ncnc2scc(-c3ccccc3)c12)N1CCN(c2ccccc2F)CC1,-16.4%

More records follow.
SMILES,HPGD inh
CC(C)(C)C(=O)NCCCc1ccccc1,-7.0%
COc1cc(-c2nnc(SCC(=O)N3CCCC3)o2)cc(OC)c1OC,?
CCOC(=O)c1c(C)n(C)c2ccc(OCC(O)CNC(CC)CO)cc12 (stereo unspecified),-8.6%
O=C(NNC(=O)c1sc2cccc(Cl)c2c1Cl)NC1CCCCC1,-8.6%
Cc1ccc(NC(=O)c2ccc3c(c2)OCCO3)cc1S(=O)(=O)Nc1cccc(Cl)c1,?
Cn1c(=O)c2c(nc(NC(Cc3ccccc3)C(=O)O)n2Cc2ccccc2)n(C)c1=O (stereo unspecified),-14.1%
COc1ccc(OC)c(N(CC(=O)N2CCC(C)CC2)S(=O)(=O)c2ccc(OC)c(OC)c2)c1,4.4%
Cc1cccc2nc(-c3ccccc3)nc(N[C@@H](CO)c3ccccc3)c12,?
CCOC(=O)N1CCN(C(=O)CN(c2ccc(C)c(C)c2)S(=O)(=O)c2ccccc2)CC1,-2.3%
CCC(C)NC(=O)c1ccccc1NS(=O)(=O)c1ccc(OC)c(OC)c1 (stereo unspecified),-23.3%
O=C(Nc1ccc2c(c1)C(=O)N(c1ccccc1)C2=O)C1CCCO1 (stereo unspecified),-10.1%
O=C(CN1C(=O)C2C3C=CC(C3)C2C1=O)Nc1ccc(C(=O)O)cc1 (stereo unspecified),-10.9%
COc1cc2cc3c4cc(OC)c(OC)cc4cc[n+]3c(C)c2cc1OC,123.9%&43.4%[activator]
CC1(C)Cc2c(c(N3CCOCC3)nc3sc(C#N)c(N)c23)CS1,?
COc1ccc2c(c1OC)C(=O)N1c3ccccc3C(=O)N(c3ccccc3)C21 (stereo unspecified),-4.0%
Cn1c(=O)c2[nH]c(C3CCCC3)nc2n(C)c1=O,-10.5%&-12.3%
O=C(CC(c1ccccc1)c1ccccc1O)NCc1ccccc1Cl (stereo unspecified),15.8µM*
C=CCOC(=O)c1cc(-c2ccc(/C=C3\C(=O)NC(=O)C(C#N)=C3C)o2)ccc1Cl,15.8µM*
CCOC(=O)CCc1c(C)c2ccc(OCC(=O)N(CC)CC)c(C)c2oc1=O,?
O=C1OC(Cc2ccncc2)C(O)=C1C1=NCCCN1 (stereo unspecified),-0.4%
Cc1cc(CNC(=O)C(C)Cc2ccccc2)nn1C (stereo unspecified),-16.8%
COc1ccc(/C=C/c2nnc(NC(=O)CSc3ccc(Cl)cc3)s2)cc1,?
CCOc1ccccc1NC(=O)CC1Nc2ccccc2NC1=O (stereo unspecified),?
Cc1ccc(C)c(C(=O)N(Cc2nc(-c3ccc(Cl)cc3)no2)C(C)C)c1,-17.7%
Cc1nnc(NC(=O)CSc2ncnc3c2cnn3-c2ccccc2C)s1,-5.0%

Next records
SMILES,HPGD inh
Cc1ccc(CC2CC(=O)N(Cc3ccco3)C2=O)cc1 (stereo unspecified),-10.8%
Cc1ccc(C)c(NC(=O)c2ncn[nH]2)c1,-1.6%
CCOC(=O)c1c(C)[nH]c(C)c1C(=O)COC(=O)[C@@H](NC(=O)c1ccccc1OCC)C(C)C,-4.5%
COc1ccc(CN2CCSCC2)cc1O,2.1%
Cc1ccc(N(C)C(=O)C2CCN(S(=O)(=O)c3ccc4c(c3)oc(=O)n4C)CC2)cc1,-6.1%
CCc1[nH]nc2c1C1(CCN(C(=O)OCc3ccccc3)CC1)C(C#N)=C(N)O2,-5.4%
N#CC1(c2c(O)nc3n(c2=O)CCCS3)CCCCC1,-3.5%
O=c1c(-c2ccc(Oc3ccccc3)cc2)[n+]([O-])c2ccccc2n1OCc1ccccn1,-14.2%
COCc1[nH][nH]c(=O)c1C=Nc1ccc(Cl)cc1,-16.2%
COc1ccc(Br)cc1CNC(=O)Nc1cccs1,-22.7%
O=C(N/N=C/c1ccc(Br)o1)c1cncc(Br)c1,-4.8%
CC(C)(C)C(=O)Cn1c(=O)n(CC2CCCO2)c(=O)c2ccccc21 (stereo unspecified),-5.4%
COc1cc(/C=N/O)cc(Br)c1OCc1cccc(Cl)c1,-14.4%
CC(C)(C)NC(=O)C(c1ccccc1)N(C(=O)c1csnn1)C1CC1 (stereo unspecified),-3.5%
CN(C)Cc1c(O)ccc2[nH]cnc12,-7.0%
CCN(CC)S(=O)(=O)c1ccc2c(c1)nc(CCC(=O)OCc1c(C)noc1C)n2C,-7.9%
NC(=O)CSc1nnc(-c2ccccc2Br)n1-c1cccc(C(F)(F)F)c1,-16.1%
Cc1c(C#N)c2ccccc2n1CC(=O)NCCc1c[nH]c2ccccc12,-6.0%
CCCCC(=O)Oc1ccccc1C(=O)O,-18.5%
N#Cc1nc(COc2ccc(Br)cc2)oc1N1CCCCCC1,-20.6%
O=c1c2ccccc2nc(-c2cccs2)n1-c1ccc2ccccc2c1,?
CCOc1ccc(NC(=O)C[n+]2ccc(N(C)C)cc2)cc1,-13.7%
CC(=O)/C(C#N)=C1\NC(=O)C(Cc2ccc(C)c(C)c2)S1 (stereo unspecified),-16.7%
CC(C)(C)c1cc(-n2ccnc2)n2ncc(-c3ccc(Cl)cc3)c2n1,-21.3%
COc1ccccc1OCC(=O)NN=C(Cc1ccccc1)Cc1ccccc1,-25.1%

More entries:
SMILES,HPGD inh
O=C(N/N=C\c1ccc(-c2ccc([N+](=O)[O-])cc2)o1)c1ccc2c(c1)OCO2,-13.4%
Cc1ccc(C)c(N(CC(=O)NC2CCCC2)C(=O)c2cc3cc4cccc(C)c4nc3s2)c1,-28.3%
CCOC(=O)c1[nH]c2ccc(F)cc2c1NC(=O)CCN1CCOCC1,?
Cc1ccccc1NC1=C(Cl)C(=O)N(C2CCCCC2)C1=O,?
CCC(C)NC(=O)c1c(N)n(/N=C/c2cccs2)c2nc3ccccc3nc12 (stereo unspecified),?
CC(C)(C)NC(=O)CSc1nnc(NC(=O)CCn2cnc3ccccc3c2=O)s1,-18.1%
Cc1cc(C)n(-c2cc(C(C)(C)C)nc3c(-c4ccc(Cl)cc4)cnn23)n1,-2.7%
CCCOc1ccc(N2C(=O)CC(S/C(N)=N/N=C(\C)c3cccs3)C2=O)cc1 (stereo unspecified),-6.8%
Cc1ccc([N+](=O)[O-])c(C)c1,-2.4%
Cc1ccc(NC(=S)NC2CCN(Cc3ccccc3)CC2)c(C)c1,1.4%
Clc1ccc(Cn2ncc3c(NCc4ccccc4)ncnc32)cc1,-14.9%
Cc1[nH]n(-c2ccc([N+](=O)[O-])cc2)c(=O)c1C=NCCN1CCN(C(=O)c2ccc(F)cc2)CC1,-5.4%
O=C(C1CC(c2ccccc2O)=NO1)N1CCCCC1 (stereo unspecified),7.94µM*
O=C(NNC1CC(=O)N(c2ccc3c(c2)OCCO3)C1=O)c1ccccc1 (stereo unspecified),-15.9%
CC(=O)Nc1ccc(S(=O)(=O)NCc2ccc(C(=O)NCc3ccc4c(c3)OCO4)cc2)cc1,1.2%
Cc1ccc(-c2nc3ccccc3s2)cc1NC(=O)c1cc(-n2cnnc2)ccc1Cl,-21.6%
O=C(NCCCN1CCOCC1)c1cc2cc(Br)ccc2oc1=O,-2.8%
Cc1ccccc1CN(c1ccc(C(=O)N2CCCC2)cc1)S(C)(=O)=O,-9.9%
COc1ccc(C2CC(=O)N3CN(c4ccccc4F)CSC3=C2C#N)cc1OC (stereo unspecified),?
COc1ccc(N2C(=O)C(OC(C)=O)C2c2ccc(C)cc2)cc1 (stereo unspecified),2.4%
CC(=O)Nc1cccc(-c2nc3ccc(NC(C)=O)cc3[nH]2)c1,?
CCOC(=O)c1nnn(-c2nonc2N)c1-c1ccc(OCC)cc1,4.0%
Cc1cc(Nc2cccc(Cl)c2)nc(N2CCOCC2)n1,-8.0%
O=C(CSc1nccn1-c1ccc(F)cc1)NCc1ccc2c(c1)OCO2,-17.1%
CCn1c(SCC(=O)N2CCCc3ccccc32)nc2ccccc2c1=O,-26.0%

The listing continues.
SMILES,HPGD inh
CSc1ccc(S(=O)(=O)Nc2cccc(F)c2)cc1,-10.1%
Cc1ccccc1/C=N\NC(=O)c1csnn1,-2.4%
Cc1ccc(C(=O)NCC(=O)OCC(=O)NC2CCS(=O)(=O)C2)cc1C (stereo unspecified),-9.1%
O=C(O)C1CCC(=O)N1C1c2ccccc2Oc2ccccc21 (stereo unspecified),-0.7%
COc1ccc(-n2nc3c(c2NC(=O)c2ccc(Br)cc2)CS(=O)C3)cc1 (stereo unspecified),-11.6%
COc1cc(OC)c(C2=NOC(C(=O)O)C2)cc1Cl (stereo unspecified),?
Cc1ccsc1/C=N\NC(=O)c1n[nH]c2c1CCC2,-30.4%
Cc1ccc(SCc2c(C#N)c3ccccc3n2C)cc1,-14.3%
CCN1CCN(CCNC(=O)CCCCCn2c(=O)[nH]c3cc(C(=O)OC)ccc3c2=O)CC1,?
CCCCC(=O)N1CCCC(c2nc3c(nnn3Cc3cc(C)ccc3C)c(=O)[nH]2)C1 (stereo unspecified),2.24µM*
CN(Cc1nc(-c2ccncc2)no1)S(=O)(=O)c1ccccc1,-18.8%
CCOc1ccc(NC(=O)CS(=O)(=O)c2cn(C)c3ccccc23)cc1,-5.3%
COc1ccc(C)cc1NC(=O)CNC(=O)Cn1ccc2ccccc2c1=O,-21.2%
CC(CN1CCOCC1)C(=O)O (stereo unspecified),6.4%
O=P(COc1ccccc1)(c1ccccc1)c1ccccc1,-10.3%
CCOC(=O)CC(=O)CSc1ccc2nnc(-c3ccc(C)cc3)n2n1,12.6µM*
Cc1cccc(Cn2c(N3CCN(c4ccccc4)CC3)nc3c2c(=O)n(C)c(=O)n3C)c1,?
COC(=O)[C@@]1(Cc2ccc(F)cc2)[C@H]2c3cc(C(=O)N(C)C)n(Cc4ccc(OC(F)(F)F)cc4)c3C[C@H]2CN1C(=O)c1ccccc1,-11.7%&-27.4%
CCC(=O)Oc1ccc(C(=O)Nc2cccc(C(=O)c3ccccc3)c2)cc1,-8.4%
CC(C)(C)c1ccc(Cn2ccc(-c3ccc4c(c3)OCO4)n2)cc1,-19.4%
CC(C)C1Oc2ccccc2N(CC(=O)N(Cc2ccccn2)C2CC2)C1=O (stereo unspecified),-7.6%
O=C(OCC(=O)N1CCN(c2ccccc2)CC1)c1ccco1,-14.1%
Fc1ccc(-c2csc3ncnc(Cl)c23)cc1,-19.4%
Nc1nonc1C(=O)NCCc1ccccc1,-11.6%
CN1CCN(C(=O)NC2CCCCC2)CC1,-6.6%

Bioassay records as filed in PubChem BioAssay.
